IEC-6 cytotox: cytotoxicity in IEC-6 intestinal epithelial cells, primary screen, cytotoxicity control for KLF5 inhibitor project, cell-based, luminescence. IEC-6 cytotoxicity, luminescence viability. hit rate 0.78% among 290,000. inhibition, % at 5 µM; in the data active = inhibition above about 22%;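 note: 0% = plate median of test compound wells and 100% = cytotoxic reference compound wells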
aSyn 5UTR inh: MLPCN primary screen, SNCA 5' untranslated region. alpha-synuclein 5'UTR reporter, inhibitor activity. inhibition, % (tested at 7.5 µM). hit rate 0.82% among 300,000. AID 1813, 2009; in the data active = inhibition above about 60%;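 note: H4 neuroglioblastoma cells stably carrying SNCA 5'UTR luciferase fusion; 0% = DMSO wells and 100% = positive control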
KLF5 inhibitor: KLF5 expression inhibitors, primary screen, DLD-1 cells, luminescence. DLD-1 KLF5 promoter-luciferase reporter. hit rate 0.23% among 290,000. AID 1700, 2009. inhibition, % at 5 µM;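 active = inhibition above a per-plate limit of that plate's mean compound inhibition plus 3 SD, cut at about 60% in these data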;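 note: 0% = DMSO wells and 100% = LY294002 at 200 µM; higher means less KLF5 promoter-driven luciferase light; inactives centre near -14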
TRPC6 activator: mouse TRPC6 channel activators, primary screen, cell-based, HEK293, membrane potential dye; Short transient receptor potential channel 6 (Mus musculus), Q61143; HEK293-TRPC6 membrane potential dye fluorescence; active compounds read high; B-score at 10 µM; hit rate 0.13% among 310,000;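 active = B-score of the integrated fluorescence ratio above library mean plus 3 SD, and starting fluorescence ratio within library mean plus 5 SD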;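 note: higher score means more depolarization so channel activation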
Target sequence (Q61143 whole entry, looked up): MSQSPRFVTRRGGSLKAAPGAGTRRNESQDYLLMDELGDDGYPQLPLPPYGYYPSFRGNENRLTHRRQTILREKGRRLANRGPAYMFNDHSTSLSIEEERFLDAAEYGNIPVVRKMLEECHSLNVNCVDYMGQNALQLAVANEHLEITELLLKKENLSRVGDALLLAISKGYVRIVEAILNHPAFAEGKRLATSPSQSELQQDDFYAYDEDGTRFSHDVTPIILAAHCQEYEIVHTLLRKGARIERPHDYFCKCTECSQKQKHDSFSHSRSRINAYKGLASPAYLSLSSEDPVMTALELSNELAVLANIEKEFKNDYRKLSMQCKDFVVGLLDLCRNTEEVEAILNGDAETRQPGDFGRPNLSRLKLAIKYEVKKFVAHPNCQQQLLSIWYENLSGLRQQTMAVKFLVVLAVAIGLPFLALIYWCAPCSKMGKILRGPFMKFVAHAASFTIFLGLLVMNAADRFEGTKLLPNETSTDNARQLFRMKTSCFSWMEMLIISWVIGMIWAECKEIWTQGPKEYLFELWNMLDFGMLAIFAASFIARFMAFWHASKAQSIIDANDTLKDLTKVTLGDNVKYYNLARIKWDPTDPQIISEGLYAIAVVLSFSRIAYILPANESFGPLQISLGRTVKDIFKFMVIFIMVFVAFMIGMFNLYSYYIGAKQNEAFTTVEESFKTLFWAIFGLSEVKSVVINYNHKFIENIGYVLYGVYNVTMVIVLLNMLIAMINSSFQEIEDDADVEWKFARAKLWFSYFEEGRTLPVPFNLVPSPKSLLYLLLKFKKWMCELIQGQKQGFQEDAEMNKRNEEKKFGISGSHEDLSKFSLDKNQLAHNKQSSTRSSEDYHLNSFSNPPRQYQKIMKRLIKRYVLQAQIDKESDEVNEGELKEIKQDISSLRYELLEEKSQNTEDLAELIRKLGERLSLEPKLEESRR
TRPC4 agonist: activators of mouse TRPC4 channel, primary screen, Fluo4 calcium, HEK293 TRPC4beta/mu-opioid cells; hit rate 0.49% among 310,000; B-score at 10 µM; Fluo4 calcium fluorescence; active compounds read high;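 active = B-score above 5 SD of library B-scores, and initial fluorescence ratio not above library mean plus 5 SD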;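 note: positive B-score marks a calcium rise read as TRPC4 activation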
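Assay system: HEK293 stable line with TRPC4beta plus mu-opioid receptor; schedule: 45 min room-temperature Fluo4 loading, 110 s read; technique: kinetic Fluo4 calcium fluorescence; evaluation: integrated baseline-normalised fluorescence ratio, converted to per-well B score; controls: buffer (low) and maximal DAMGO (high)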
TRPC4 block: inhibitors of mouse TRPC4 channel, primary screen, Fluo4 calcium, HEK293 TRPC4beta/mu-opioid cells. DAMGO-evoked Fluo4 calcium flux; active compounds read low. B-score at 10 µM. Short transient receptor potential channel 4 (Mus musculus), Q9QUQ5. hit rate 0.39% among 300,000;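 active = B-score over 3 SD under the library average, no early fluorescence shift, positive overall ratio signal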
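test system = HEK293 cells with stable TRPC4beta plus mu-opioid receptor expression | detection = Fluo4 Ca2+ flux fluorescence | read-out = integrated fluorescence ratio relative to baseline, converted to per-well B score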
TRPC4 PAM: positive allosteric modulators of TRPC4, primary screen, cell-based, mouse TRPC4beta, HEK293 mu-opioid, Fluo-4 calcium | DAMGO EC20, Fluo-4 Ca2+ flux; active compounds read high | B-score at 10 µM | hit rate 0.42% among 310,000 | AID 2227, 2009;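 active = B-score of calcium response area above 5 SD of library B-scores, with initial fluorescence ratio within 5 SD of library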;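 note: B-score of integrated fluorescence ratio over time as area under calcium response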
TRPC6 inhibitor: mouse TRPC6 channel inhibitors, primary screen, cell-based, HEK293, membrane potential dye; Short transient receptor potential channel 6 (Mus musculus), Q61143; ACh-evoked depolarization; active compounds read low; B-score at 10 µM; hit rate 1.1% among 310,000; AID 2553, 2010;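 active = B-score under library mean minus 3 SD, initial fluorescence not abnormally high, positive integrated signal ratio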;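 note: B-score derived from integrated fluorescence ratio over the kinetic read; more negative B-score means stronger inhibition of depolarization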
SKKanGAS inh: S. pyogenes SKKanGAS growth inhibitors in kanamycin, primary screen, streptokinase expression inhibitor project, SKKanGAS strain, BacTiter-Glo luminescence; 6 h; inhibition, % at 7.5 µM; hit rate 1.3% among 300,000;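 active = mean replicate score, as percent of positive control median, at least 50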;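 note: strain carries kanamycin resistance gene driven by streptokinase promoter and grows in 40 µg/ml kanamycin; loss of luminescence reflects streptokinase promoter inhibition or plain growth inhibition; 0% = median of DMSO wells and 100% = positive control at its reference dose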
MrgX1 antagonist: antagonists of human MrgX1 receptor, primary screen, HEK293 cells, Fluo-4 calcium flux; Mas-related G-protein coupled receptor member X1 (Homo sapiens), Q96LB2; BAM8-22 antagonism; active compounds read low; B-score at 10 µM; hit rate 1.3% among 310,000; AID 588676, 2011;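 active = calcium-response B-score plate-corrected more than 3 library SD below zero, starting fluorescence within 5 deviations, no agonist response on first addition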;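 note: peak minus trough fluorescence over baseline after final BAM8-22 challenge near maximal dose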
An asterisk follows results filed as active; i = inactive; x = not tested or not shown; & = joins results of further samples; ! = not confirmed by another sample. Only part of the results is shown, so the mix of outcomes need not match the whole.

SMILES	IEC-6 cytotox	aSyn 5UTR inh	KLF5 inhibitor	TRPC6 activator	TRPC4 agonist	TRPC4 block	TRPC4 PAM	TRPC6 inhibitor	SKKanGAS inh	MrgX1 antagonist
CCOC(=O)COn1c(=O)c(-c2ccco2)[n+]([O-])c2ccccc21	2	-3	17	i	i	i	i	i	2	i
Cc1ccc(N2C(=O)CC3(CC4C=CC3C4)C2=O)cc1 (centres undefined)	-2	-29	13	i	i	i	i	i	-2	i
CCOC(=O)CSc1nc(N)c(C#N)c(-c2ccc(OC)cc2)c1C#N	5	-11	-28	i	i	i	i	i	5	-5.8*
NS(=O)(=O)c1cc2c(cc1Cl)NC(CC1CCCC1)NS2(=O)=O (centres undefined)	0	9	1	i	i	i	i	i	-5	i
Cc1[nH]c2ccc(F)cc2c(=O)c1SC(F)(F)C(F)C(F)(F)F (centres undefined)	-3	30	-17	i	i	i	i	i	3	i
CC(=O)/C(C#N)=C1\NC(=O)C(Cc2ccccc2Cl)S1 (centres undefined)	78*	-48	21	i	i	i	i	i	13	i
Cc1ccc2[nH]c(CCN(C)C)c(CC#N)c2c1	1	16	-24	i	i	i	i	i	0	i
Cn1c(=O)[nH]c(=O)c2c1nc(Br)n2CCSc1ncccn1	5	-14	-8	i	i	i	i	i	1	i
CCNC(=O)COn1c(SCC(=O)NCC)nc2ccccc2c1=O	2	-2	4	i	i	i	i	i	1	i
CCN(CC)CCN1C(=O)C(=O)/C(=C(/O)c2c(C)[nH]c(C(=O)OC)c2C)C1c1ccco1 (centres undefined)	-1	8	-26	i	i	i	i	i	0	i
c1ccc(CSCCc2ccncc2)cc1	0	-18	-3	i	i	i	i	i	4	i
CC(C)c1nc(N2CCOCC2)c(C#N)c2c1CCC2	0	36	-9	i	i	i	i	i	5	i
O=c1[nH]c2sc3c(c2c(=O)n1Cc1ccccc1)CCC3	0	-19	-7	i	i	i	i	i	4	i
Nn1nnc2ccccc21	x	-51	x	i	i	i	i	i	-1	i
O=C(O)C1=CCNCC1	x	-4	x	i	i	i	i	i	-3	i
COc1cccc(-c2nn3c(-c4ccco4)nnc3s2)c1	x	-59	x	i	i	i	i	i	4	i
O=c1c(O)c(-c2ccc(O)cc2)oc2cc(O)cc(O)c12	x	-100	x	i	i	i	i	i	3	i
CC1(C)S[C@@H]2[C@H](NC(=O)Cc3ccccc3)C(=O)N2[C@H]1C(=O)O	2&1	10&7	-17&-36	i	i	i	i	i	100*!	i
COC(=O)c1cc(Br)c(=O)n(CCc2ccc(F)cc2)c1	-1	-6	-23	i	i	i	i	i	0	i
Cn1c(=O)[nH]c(=O)c2c1nc(N(CCO)Cc1ccccc1)n2Cc1ccccc1Cl	2	25	-11	i	i	i	i	i	1	i
COC(=O)c1cc(=O)n2c(-c3ccc(OC)cc3)csc2n1	-4	-1	-18	i	i	i	i	i	-8	i
Cc1cc(C)n(-c2nnc(C)n2/N=C/c2ccccc2F)n1	0	-12	-18	i	i	i	i	i	-4	i
COc1ccc2c(c1OC)C(=O)O[C@@H]2[C@H]1c2c(cc3c(c2OC)OCO3)CCN1C	0	18	0	i	i	i	i	i	0	i
CC1=C(/C=C/C(C)=C/C=C/C(C)=C\C(=O)O)C(C)(C)CCC1	x	39	x	i	i	i	i	i	8	i
CCOC(=O)NC(Nc1cc(C)on1)(C(F)(F)F)C(F)(F)F	1	11	-27	i	i	i	i	i	-1	i
C(=N\Nc1ccccn1)/c1cccnc1	-2	-32	-17	i	i	i	i	i	-2	i
CC(C)(Oc1ccc(CCNC(=O)c2ccc(Cl)cc2)cc1)C(=O)O	0	24	1	i	i	i	i	i	0	i
Cn1c(/C(C#N)=C/Nc2ccccn2)nc2ccccc21	5	-37	-36	i	i	i	i	i	9	i
CCCNC1=C(C)C(=O)CC1	3	-39	-15	i	i	i	i	i	-3	i
FC(F)(F)c1cccc(N2CCc3cn[nH]c32)c1	5	-17	-14	i	i	i	i	i	0	i

Ordered by count of non-hydrogen atoms (largest number first): five of the compounds above
SMILES	IEC-6 cytotox	aSyn 5UTR inh	KLF5 inhibitor	TRPC6 activator	TRPC4 agonist	TRPC4 block	TRPC4 PAM	TRPC6 inhibitor	SKKanGAS inh	MrgX1 antagonist
Cn1c(=O)[nH]c(=O)c2c1nc(N(CCO)Cc1ccccc1)n2Cc1ccccc1Cl	2	25	-11	i	i	i	i	i	1	i
CC(C)(Oc1ccc(CCNC(=O)c2ccc(Cl)cc2)cc1)C(=O)O	0	24	1	i	i	i	i	i	0	i
CCOC(=O)NC(Nc1cc(C)on1)(C(F)(F)F)C(F)(F)F	1	11	-27	i	i	i	i	i	-1	i
Cn1c(/C(C#N)=C/Nc2ccccn2)nc2ccccc21	5	-37	-36	i	i	i	i	i	9	i
C(=N\Nc1ccccn1)/c1cccnc1	-2	-32	-17	i	i	i	i	i	-2	i

Limited to IEC-6 cytotox, for some of the entries so far:
Compound,IEC-6 cytotox
CCOC(=O)COn1c(=O)c(-c2ccco2)[n+]([O-])c2ccccc21,2
Cc1ccc(N2C(=O)CC3(CC4C=CC3C4)C2=O)cc1 (centres undefined),-2

(list continues)
SMILES	IEC-6 cytotox	aSyn 5UTR inh	KLF5 inhibitor	TRPC6 activator	TRPC4 agonist	TRPC4 block	TRPC4 PAM	TRPC6 inhibitor	SKKanGAS inh	MrgX1 antagonist
CN1[C@@H](CC(=O)c2ccccc2)CCC[C@H]1C[C@H](O)c1ccccc1	-1&2	x	-14&-31	x	x	x	x	x	x	x
Cn1c(SCC(=O)NCc2ccccc2)nc2ccccc21	4	9	7	i	i	i	i	i	-2	i
CNC(=O)Oc1ccc2c(c1)[C@]1(C)CCN(C)[C@@H]1N2C	-6&-6	14&14	4&-37	i	i	i	i	i	2&-2	i
CCN1CCN(C(=O)N[C@@H](C(=O)N[C@@H]2C(=O)N3[C@@H]2SC(C)(C)[C@@H]3C(=O)O)c2ccccc2)C(=O)C1=O	-3	-4	-12	i	i	i	i	i	103*	i
N#Cc1nc(-c2ccc(Cl)cc2)oc1N1CCCCC1	-1	-6	-24	i	i	i	i	i	-21	i
NC(=O)/C(=N\O)c1ccccc1	-4	15	-13	i	i	i	i	i	2	i
Cc1oc2nc(SCCCC(=O)NCCCO)nc(N)c2c1C	2	3	1	i	i	i	i	i	0	i
CC1(C(=O)CSc2n[nH]c(-c3ccccc3Cl)n2)CCC(=O)O1 (centres undefined)	-8	-1	-43	i	i	i	i	i	7	i
O=C1N=C(O)CN1/N=C/c1ccc(-c2ccc([N+](=O)[O-])cc2)o1	x	4	x	i	i	i	i	i	0	i
Cc1nc(SC2C=CS(=O)(=O)C2)n[nH]1 (centres undefined)	3	0	-8	i	i	i	i	i	3	i
Cc1cc2ccccc2cc(C)c1=O	-2	12	-21	i	i	i	i	i	10	i
COc1ccc(OC(=O)c2cc3ccccc3o2)cc1	0	8	3	i	i	i	i	i	5	i
Nc1nnc(Cc2ccc(Cl)c(Cl)c2)s1	-3	23	-33	i	i	i	i	i	-7	i
CC(O)CNc1nc2c(c(=O)n(C)c(=O)n2C)n1CCc1ccccc1 (centres undefined)	-2	-12	-15	i	i	i	i	i	-3	i
Cc1c(O)c(CN2CCCC2)cc2c1oc(=O)c1ccccc12	-4	-15	2	i	i	i	i	i	-9	i
Nc1ncnc2c1ncn2[C@@H]1O[C@H](COP(=O)(O)O)[C@@H](O)[C@H]1O	0	8	-35	i	i	i	i	i	-3	i
CCCC1CC(C(=O)NC(C(C)Cl)C2OC(SC)C(O)C(O)C2O)N(C)C1 (centres undefined)	4	-21	-43	i	i	i	i	i	106*	i
CCOC(=O)[C@H](CCc1ccccc1)N[C@@H](C)C(=O)N1CCC[C@H]1C(=O)O	-12	-31	-12	i	i	i	i	i	-3	i
Cc1ccnc(NS(=O)(=O)c2ccc(N)cc2)n1	0	-4	-13	i	i	i	i	i	3	i
C=CCOc1nc2c(c(=O)n(C)c(=O)n2C)n1Cc1ccc(Cl)cc1Cl	-4	-1	-11	i	i	i	i	i	1	i
C[C@@H]1C[C@H]2[C@@H]3CCC4=CC(=O)C=C[C@]4(C)[C@@]3(F)[C@@H](O)C[C@]2(C)[C@H]1C(=O)CO	12	3	0	i	i	i	i	i	-2	i
CCOCCn1c(SCc2c(F)cccc2Cl)nc2c1c(=O)[nH]c(=O)n2C	-5	37	-15	i	i	i	i	i	7	i
N#CCCN(CCC#N)c1nnc(-c2ccccc2)s1	-3	7	-20	i	i	i	i	i	-4	i
Cc1ccc(S(=O)(=O)N2CCN(c3nc(C(C)C)c4c(c3C#N)CC(C)(C)OC4)CC2)cc1	-1	-1	-32	i	i	i	i	i	14	i
COc1ccc(C(=O)Nc2nc(N)n(-c3ccccc3)n2)cc1OC	-1	12	-13	i	i	i	i	i	1	i
CC(O)c1n(C)c(Cl)c[n+]1C (centres undefined)	4	-13	-17	i	i	i	i	i	9	i
O=C(c1coc(=O)c(Br)c1)N1CCCc2ccccc21	-2	-15	-15	i	i	i	i	i	3	i
O=C(c1ccccc1)c1cc(-c2ccccc2)on1	-5	-108	-160	i	i	i	i	i	14	i
CCOC(=O)Cn1nc(C)c2ccccc2c1=O	2	1	12	i	i	i	i	i	-4	i
Cc1cccc(C)c1OCC(O)CNS(=O)(=O)c1ccccc1C(=O)N1CCCCC1 (centres undefined)	-3	11	14	i	i	i	i	i	9	i
CSc1ccc2c(c1)C(N1CCN(C)CC1)Cc1ccccc1S2 (centres undefined)	-1	-26&20	-21	i	i	i	i	i	11&10	i
Cc1cc(COc2ccccc2OCCN2CCN(C)CC2)no1	0	-5	-16	i	i	i	i	i	0	i
O=C(NNS(=O)(=O)c1ccccc1)c1cccnc1	8	0	7	i	i	i	i	i	-16	i
C=CCn1c(=O)c2c(nc(-c3ccc(S(=O)(=O)O)cc3)n2C)n(C)c1=O	x	-2	x	i	i	i	i	i	-3	i
COC(=O)CC1=C(C(=O)OC)C(c2cccc(OCC(N)=O)c2)C(C#N)=C(N)O1 (centres undefined)	5	-13	1	i	i	i	i	i	-7	i
